Bioassay records: PubChem, National Center for Advancing Translational Sciences (NCATS)
WRN inhibitor – blocks human WRN helicase. Q14191. WRN helicase unwinding, fluorescent forked duplex, kinetic. Potency, µM (highest dose often 114 µM), without a hit: at the top dose activity change, negative = inhibition, most hits filed as inhibitors. 360,000 tested, 0.46% active. AID 651768; also: potency is read from the fitted curve at half-maximal effect; % is scaled to controls: 0 for no effect and ±100 for the full control effect; nearly all actives have a fitted effect of over 55% in size
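Kinetic red-fluorescence monitoring (525/598 nm) tracks WRN helicase activity after 100 nM fluorophore-quencher forked duplex and 2 mM ATP are added to 20 nM enzyme pretreated 15 min at room temperature with compound.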
EPAC1 ag – activates human EPAC1 exchange factor. AID 720707. O95398. EPAC1 agonist qHTS, biochemical assay; response scale: 100% = response to 6.5 mM cAMP. 360,000 tested, 0.073% active. Potency, µM (highest dose often 154 µM), for inactives: at the top dose activation, most hits filed as activators; also: potency is read from the fitted curve at half-maximal effect; nearly all actives have a fitted effect of over 60% in size
Target sequence (O95398 whole entry, looked up): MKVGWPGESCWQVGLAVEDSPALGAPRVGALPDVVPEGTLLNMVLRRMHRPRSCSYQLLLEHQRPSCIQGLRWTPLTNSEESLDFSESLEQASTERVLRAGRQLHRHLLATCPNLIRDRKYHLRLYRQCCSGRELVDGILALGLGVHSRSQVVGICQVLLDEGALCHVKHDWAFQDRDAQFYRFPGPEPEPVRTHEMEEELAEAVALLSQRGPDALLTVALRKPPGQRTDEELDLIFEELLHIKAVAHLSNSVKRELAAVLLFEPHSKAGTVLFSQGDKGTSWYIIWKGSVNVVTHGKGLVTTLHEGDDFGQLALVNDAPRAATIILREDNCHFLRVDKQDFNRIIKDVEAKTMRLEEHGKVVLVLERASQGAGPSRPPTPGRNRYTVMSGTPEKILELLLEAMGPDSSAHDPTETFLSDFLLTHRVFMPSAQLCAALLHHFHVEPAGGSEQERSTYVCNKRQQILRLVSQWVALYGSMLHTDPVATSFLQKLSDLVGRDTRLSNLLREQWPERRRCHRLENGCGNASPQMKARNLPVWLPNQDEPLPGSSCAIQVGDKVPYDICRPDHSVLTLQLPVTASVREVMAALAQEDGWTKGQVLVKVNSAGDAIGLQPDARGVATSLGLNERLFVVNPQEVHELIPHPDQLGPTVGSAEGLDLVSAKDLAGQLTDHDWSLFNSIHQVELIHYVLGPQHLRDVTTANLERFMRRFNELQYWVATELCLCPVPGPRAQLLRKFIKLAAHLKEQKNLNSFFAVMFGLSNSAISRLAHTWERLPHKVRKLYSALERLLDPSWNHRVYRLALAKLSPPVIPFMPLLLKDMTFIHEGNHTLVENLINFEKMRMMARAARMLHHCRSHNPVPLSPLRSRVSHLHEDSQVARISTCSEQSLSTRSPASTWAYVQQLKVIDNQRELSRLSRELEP
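Fluorescent GDP-exchange assay: 100 nM EPAC1 with 250 nM Rap1B preloaded with BODIPY-GDP and 50 uM GDP; compounds tested as concentration series, 5 min at room temperature, then read every 5 min for 30 min (ex 480/em 540 nm); normalized to 6.5 mM cAMP.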
FUS suppressor – suppressors of FUS proteinopathy in yeast; S. cerevisiae FUS-expressing, growth rescue, OD600, 24 h; Potency, µM (top dose mostly 76.6 µM), for inactives: top-dose growth rescue (activation), most hits filed as activators; 390,000 tested, 0.24% active; AID 1347120;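 also: potency is read from the fitted curve at half-maximal effect; plate controls were DMSO vehicle for no effect and reference control for full effect; nearly all actives have a fitted effect of over 55% in size; some results filed as inactive show a strong effect at the top dose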
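Absorbance at 600 nm, taken 24hr after compound addition, measured rescue of FUS-yeast growth at 30C. Induction used 2% galactose with seeding at OD 0.005. Controls: CP55940 from 92uM final, DMSO only.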
EPAC1 antagonist – EPAC1 (human) antagonism | AID 720709 | Potency, µM (titrated, usually from 115 µM), for inactives: at the top dose activity change, negative = inhibition, hits mostly inhibitors | EPAC1 GEF assay, Rap1b-BODIPY-GDP exchange fluorescence | 360,000 tested, 0.14% active;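 also: potency is read from the fitted curve at half-maximal effect; plate controls were vehicle for no effect and positive control for full effect; nearly all actives have a fitted effect of over 50% in size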
IL2 activator – activates IL-2 in a cell-based reporter assay | IL-2 activation reporter assay, cell-based qHTS; stimulated with anti-CD3/CD4/CD28 beads; in transgenic mouse T cells | activation, % (series mostly up to about 46 µM) | 360,000 tested, 0.065% active | AID 652025; in the data active = activation above about 50%; inconclusive = mostly about 30% to 49%; also: 0% is about no effect
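Readout: EGFP and DsRed signals by fluorescent plate cytometry. Unstimulated transgenic mouse T cells received compound 60 min before antibody-bead stimulation, then incubated 18 h at 37 degrees C.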
PLK1 PBD inh – PLK1 (human) polo-box domain binding inhibition; Plk1 PBD binding of FITC phosphopeptide, fluorescence polarization; Potency, µM, inactives show max response, negative = inhibition, usual class: inhibitors; 360,000 tested, 2.8% active; AID 720504; also: potency is read from the fitted curve at half-maximal effect; series mostly up to about 57 µM; % is scaled to controls: 0 for no effect and ±100 for the full control effect; nearly all actives have a fitted effect of over 65% in size
aSyn rescue – alpha-synuclein toxicity inhibition in yeast; Yeast expressing alpha-synuclein, growth rescue, BacTiter-Glo, 24 h; Potency, µM (series often up to 46.1 µM), inactives show top-dose growth rescue (activation), usual class: activators; 370,000 tested, 0.14% active; also: potency is read from the fitted curve at half-maximal effect; % of control where 0% means no effect; nearly all actives have a fitted effect of over 65% in size
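Rescue of yeast growth: cells expressing toxic alpha-synuclein, induced in galactose at OD600 0.02, incubated with compound 24 h at 30 C. ATP luminescence quantified growth; inhibitors of toxicity appear as activators.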
Abeta rescue – A-beta toxicity reversal in yeast; yeast expressing A-beta42, growth rescue, OD600, 48 h; response scale: 0% DMSO, 100% iron-clioquinol control; Potency, µM (titrated, usually from 46.1 µM), for the others: at the highest dose growth rescue, actives largely listed as activators; 410,000 tested, 0.063% active; AID 1347071; also: potency is read from the fitted curve at half-maximal effect; nearly all actives have a fitted effect of over 55% in size
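Yeast growth medium received pinned compounds, then yeast cells expressing toxic A-beta were added; plates incubated at 30 C for 48 hr. Growth read as absorbance at 600 nm, normalized to DMSO and equimolar FeCl3 plus clioquinol controls.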
* marks the source's active call; other numbers are inactive results; ? = inconclusive; . = no result given; [ ] = dose if it differs, or a comment. Unless noted, calls follow the shape of the dose curve; as a rule, active = well fitted curve in the direction sought with a large enough effect; inconclusive = small, poorly fitted or top-dose-only effect, or another doubt; inactive = no such curve, though single readings can be large; an effect the other way counts as inactive or inconclusive.

cpd | SMILES | WRN inhibitor | EPAC1 ag | FUS suppressor | EPAC1 antagonist
1 | COc1ccc(CC(=O)N2CCc3cc(OC)c(OC)cc3C2)cc1 | 4% | 8% | 1% | 5%
2 | O=C(COc1ccc(-c2nnco2)cc1)NC1CCCc2ccccc21 (stereo unspecified) | -4% | -4% | 7% | 5%
3 | CN(CC(=O)Nc1cccc(F)c1)C(=O)c1ccccc1Sc1ccccc1C#N | -3% | 16% | ? | 11%
4 | Cc1cc2c(cc1C)-n1nnnc1C(N1CCN(CC(=O)NC(C)C)CC1)C(=O)N2 (stereo unspecified) | 2% | -14% | -12% | -2%
5 | O=C(NC(=S)Nc1ncc(Br)cc1Br)c1ccccc1 | -28% | -4% | -6% | -29%
6 | CC1(C)CC(CCNC(=O)c2ccco2)CC(C)(C)N1 | -5% | 2% | 2% | -5%
7 | CN(CC(=O)Nc1cccc(F)c1)C(=O)c1cccnc1Sc1ccccc1Cl | -4% | 1% | 20% | 21%
8 | CCOC(=O)c1cc(C(=O)OCC)c2cccc(C)n2c1=O | 3% | -10% | -5% | 3%

cpd | IL2 activator | PLK1 PBD inh | aSyn rescue | Abeta rescue
1 | 2.5 | -9% | 2% | -10%
2 | -1.2 | -4% | 1% | 9%
3 | -0.1 | -7% | -2%[1.84 µM] | 0%
4 | -0.3 | -1% | 0% | 2%
5 | -1.8 | -4% | 0% | -16%
6 | -0.9 | 4% | 0% | -24%
7 | -3.1 | -5% | -1% | 0%
8 | 0.8 | -29% | -5% | -8%

Reprinted from the part before: five compounds, followed by the next part.
cpd | SMILES | WRN inhibitor | EPAC1 ag | FUS suppressor | EPAC1 antagonist
4 | Cc1cc2c(cc1C)-n1nnnc1C(N1CCN(CC(=O)NC(C)C)CC1)C(=O)N2 (stereo unspecified) | 2% | -14% | -12% | -2%
5 | O=C(NC(=S)Nc1ncc(Br)cc1Br)c1ccccc1 | -28% | -4% | -6% | -29%
6 | CC1(C)CC(CCNC(=O)c2ccco2)CC(C)(C)N1 | -5% | 2% | 2% | -5%
7 | CN(CC(=O)Nc1cccc(F)c1)C(=O)c1cccnc1Sc1ccccc1Cl | -4% | 1% | 20% | 21%
8 | CCOC(=O)c1cc(C(=O)OCC)c2cccc(C)n2c1=O | 3% | -10% | -5% | 3%
9 | CC(=O)N1CCN(S(=O)(=O)c2cccc(C(=O)OCN3C(=O)c4ccccc4C3=O)c2)CC1 | 1% | -4% | 1% | 2%
10 | C=CCn1c(CCNC(=O)c2cccs2)nnc1SCC(=O)Nc1cccc(C(C)=O)c1 | 2% | -1% | -5% | 1%
11 | CCOc1cc(S(=O)(=O)NCc2ccc3c(c2)OCO3)c(C)cc1C | -4% | 8% | 31% | -28%
12 | CN(CC1CCCO1)S(=O)(=O)c1ccc(C(=O)Nc2ccccc2F)cc1 (stereo unspecified) | -12% | -14% | 2% | -9%
13 | COCCCn1c(=N)c(C(=O)NCc2ccc3c(c2)OCO3)cc2c(=O)n3ccccc3nc21 | 20% | -6% | 22% | 13%
14 | CCOC(=O)c1sc(S(C)(=O)=O)c2c1CC(C)(C)C/C2=N/O | 3% | 1% | 0% | -3%
15 | Cc1cc(=O)n(CCC(=O)O)c2ccccc12 | 5% | 14% | -3% | 0%
16 | Cc1ccccc1CNC(=O)Cn1cnc(S(=O)(=O)N2CCCC2)c1 | -5% | -9% | 6% | 4%

cpd | IL2 activator | PLK1 PBD inh | aSyn rescue | Abeta rescue
4 | -0.3 | -1% | 0% | 2%
5 | -1.8 | -4% | 0% | -16%
6 | -0.9 | 4% | 0% | -24%
7 | -3.1 | -5% | -1% | 0%
8 | 0.8 | -29% | -5% | -8%
9 | -3.0 | 3% | 4% | -3%
10 | -0.1 | -9% | -2% | -8%
11 | 0.7 | -28% | 7% | -13%
12 | 1.4 | -7% | 8% | 16%
13 | -0.3 | -2% | 0% | 16%
14 | 0.0 | -2% | 0% | 7%
15 | 0.4 | -3% | 6% | 7%
16 | -1.4 | -8% | 2% | 3%

Next section
cpd | SMILES | WRN inhibitor | EPAC1 ag | FUS suppressor | EPAC1 antagonist
17 | COc1ccc(Cl)cc1NC(=O)Cc1c(F)cccc1Cl | 3% | -18% | . | 14%
18 | CC(OC(=O)Cn1cc(C(F)(F)F)ccc1=O)C(=O)NC(C)c1ccc(Cl)cc1Cl (stereo unspecified) | -1% | -5% | 19% | -2%
19 | O=C(CSc1nncc2ccccc12)Nc1ccc(C(=O)O)cc1 | -8% | 6% | 5% | 2%
20 | COCCn1c(=NC(=O)CSC(C)=O)sc2cc(OC)ccc21 | 1% | 2% | -4% | 13%
21 | O=C(Nc1nc(-c2ccccn2)cs1)C1CC1 | -5% | -15% | -8% | -5%
22 | O=C(c1ccc2c(=O)n(-c3ccccc3)c(=O)[nH]c2c1)N1CCN(c2ccc(F)cc2)CC1 | 6% | 1% | 7% | 8%
23 | CCOC(=O)c1cc(-c2ccccc2)sc1NC(=O)COC(=O)c1cccc(S(N)(=O)=O)c1 | -3% | -9% | 4% | 7%
24 | Cc1nn(Cc2ccc(F)cc2)c(C)c1NC(=O)c1cc2ncc(Br)cn2n1 | -8%[11.6 µM] | 4% | 2% | -15%

cpd | IL2 activator | PLK1 PBD inh | aSyn rescue | Abeta rescue
17 | 1.6 | -4% | -5% | -10%
18 | 0.7 | -1% | 0% | 1%
19 | -0.6 | -28% | -3% | 0%
20 | -2.7 | -5% | 5% | ?
21 | -2.1 | -13% | 6% | ?
22 | -2.0 | -5% | . | -5%
23 | 7.1 | 2% | 2% | -9%
24 | 0.2 | -19% | -7% | 5%

(continued)
cpd | SMILES | WRN inhibitor | EPAC1 ag | FUS suppressor | EPAC1 antagonist
25 | COc1cc(N)c(Cl)cc1C(=O)OCC(=O)N1c2ccccc2NC(=O)C1(C)C | 0% | -3% | 22% | -5%
26 | CCN(C(=O)c1cc2c(=O)n3ccccc3nc2n1CCCOC)C1CCCCC1 | -9% | -1% | 17% | ?
27 | CC(O)c1cccc(NC(=O)CCCc2ccccc2)c1 (stereo unspecified) | -4% | 8% | -41% | -2%
28 | COc1cc(C#N)ccc1OCC(=O)N1CCc2ccccc2C1 | -21% | 10% | 7% | 7%
29 | O=C(CSc1nccc(=O)[nH]1)Nc1ccc2ccccc2c1 | -8% | 11% | -1% | 8%
30 | Cc1cc(C)c(OCC(=O)Nc2nc(-c3ccccn3)cs2)c(C)c1 | -10% | -2% | ? | -13%
31 | O=C(CN1CCN(C(=O)c2ccccc2)CC1)Nc1ncc(Br)cc1Br | -7% | 15% | -10% | -3%
32 | CCn1c(CNc2ccc(C)cc2)nnc1SCC(N)=O | 13% | 8% | -22% | 6%

cpd | IL2 activator | PLK1 PBD inh | aSyn rescue | Abeta rescue
25 | -0.4 | 0% | 0% | 1%
26 | 0.6 | -18% | 13% | -6%
27 | -1.9 | -4% | 0% | 6%
28 | 0.4 | -7% | 0% | -9%
29 | -0.5 | -1% | 2% | -2%
30 | -0.3 | -18% | 13µM* | -72%[inhibitor]
31 | -0.2 | -1% | 3% | 13%
32 | -0.9 | -15% | -5% | -5%

Next entries:
cpd | SMILES | WRN inhibitor | EPAC1 ag | FUS suppressor | EPAC1 antagonist
33 | COc1ccc(Cl)cc1NC(=O)COC(=O)Cc1cccs1 | -28% | -2% | 4% | -17%
34 | Cc1ccccc1OCCC(=O)OCC(=O)N1c2ccccc2NC(=O)C1(C)C | 3% | -9% | 2% | 0%
35 | O=C(Nc1nnc(SCc2ccccn2)s1)C1CC(=O)N(c2ccc(F)cc2)C1 (stereo unspecified) | ? | -12% | ? | ?
36 | c1ccc(-c2nn3cnnc3c3ccccc23)cc1 | 0% | 7% | -38% | -6%
37 | O=C(COc1ccc(Cl)cc1)Nc1ncc([N+](=O)[O-])s1 | -2% | 2% | 14% | -1%
38 | COc1ccc(N2CC(C(=O)Nc3nnc(SCC(=O)NCC4CCCO4)s3)CC2=O)cc1 (stereo unspecified) | ? | 0% | ? | 5%
39 | Cc1[nH]c2ccccc2c1-c1csc(NC(=O)CN2CCOCC2)n1 | -5% | 1% | -15% | -1%
40 | CC(=O)c1ccc(NC(=O)Cc2cccs2)cc1 | -11%[11.6 µM] | 2% | 51% | -29%

cpd | IL2 activator | PLK1 PBD inh | aSyn rescue | Abeta rescue
33 | -1.0 | -5% | 7% | 20%
34 | 1.0 | -7% | -1% | -3%
35 | 2.0 | -18% | -2% | -7%
36 | 0.0 | 7% | -6% | -20%
37 | -4.3 | -19% | 0% | -32%[inhibitor]
38 | -1.9 | 30µM* | -3% | -14%
39 | -4.4 | ? | -1% | -7%
40 | -3.8 | ? | 8% | 4%

Quoted from above: nos. 39 to 40
cpd | SMILES | WRN inhibitor | EPAC1 ag | FUS suppressor | EPAC1 antagonist
39 | Cc1[nH]c2ccccc2c1-c1csc(NC(=O)CN2CCOCC2)n1 | -5% | 1% | -15% | -1%
40 | CC(=O)c1ccc(NC(=O)Cc2cccs2)cc1 | -11%[11.6 µM] | 2% | 51% | -29%

cpd | IL2 activator | PLK1 PBD inh | aSyn rescue | Abeta rescue
39 | -4.4 | ? | -1% | -7%
40 | -3.8 | ? | 8% | 4%

(next part)
cpd | SMILES | WRN inhibitor | EPAC1 ag | FUS suppressor | EPAC1 antagonist
41 | COCCn1c(=NC(=O)CCS(=O)(=O)c2ccccc2)sc2cc(C)ccc21 | -20% | 8% | 4% | -1%
42 | COc1cc2cc(C(=O)NCCc3c[nH]c4ccccc34)c(N)nc2cc1OC | -4% | 25% | 9% | 15%
43 | N#CCOC(=O)c1c2c(nc3ccccc13)CCC2 | -5% | 16% | 15% | 0%
44 | CC1CC1C(=O)Nc1nc(-c2ccccn2)cs1 (stereo unspecified) | -33% | 1% | -6% | -4%

cpd | IL2 activator | PLK1 PBD inh | aSyn rescue | Abeta rescue
41 | 1.1 | -20% | 0% | -9%
42 | 0.4 | 15% | 12% | -8%
43 | -0.8 | -15% | -8% | -19%
44 | -0.4 | ? | -5% | ?

These rows are one share of the data; count on the stated rates, not on these rows.
